Mtb hypoxia rep = Mtb hypoxia fluorescent reporter inhibition | M. tuberculosis hypoxia-regulated fluorescent reporter, fluorescence | 300,000 compounds, 0.1% hits | fluorescence inhibition, % (concentration not given with the values);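 active = 35 to 45% if threefold the growth effect, above 45% if 1.5-fold the growth effect; inactive = the rest, general growth blockers included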;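 note: wells of about 50 µL received 100 nL stock; 0% = vehicle wells and 100% = reference inhibitor wells; whole bacteria with a GFP reporter of the hypoxia response; strong numbers were not always called active; many hits fall short of the cut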
BJeLR lethal = kills HRASV12-expressing BJeLR cells; inhibition, % (test concentration not listed); 300,000 compounds, 0.17% hits; BJeLR (HRASV12) viability, CellTiter-Glo ATP luminescence, 48 h; reference of the scale not given here;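 active = replicate mean above 50%; inconclusive = above 50% but judged a plate artefact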;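 note: 50 nL library stock added to about 25 µL; numbers are from one replicate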
PrP UTR inh = suppresses PrP 5' UTR mRNA reporter expression; cell-based PrP 5' UTR mRNA reporter, plate reader; inhibition, % (concentration not given with the values); 340,000 compounds, 0.35% hits; AID 488862;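 active = every replicate at 50% or more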;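 note: 0 = median of the neutral control wells; tested in H4 reporter cells; numbers are from one replicate; inactives centre near -14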
Sa RN4220 lethal = kills Staphylococcus aureus RN4220; 330,000 compounds, 0.33% hits; S. aureus RN4220 growth, OD600, 16 h; inhibition, % (test concentration not listed);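 active = z-score of -3 or lower and OD600 up to 0.18 on both plates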;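 note: plate controls were untreated cells for no effect and reference antibiotic for full effect; stock transfer was 100 nL into about 80 µL; one replicate is shown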
Bead autofluor = flagged as autofluorescent in microsphere protease counterscreen; compound autofluorescence counterscreen, microsphere flow cytometry; hits give high values; fluorescence intensity (test concentration not listed); 360,000 compounds, 3.1% hits;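 active = at least 3 SD above the mean of all compounds, about 16000 in these data; inconclusive = too few beads counted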;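 note: 100 nL of 1 mM stock went into each well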
Sa ugtP lethal = growth inhibition of S. aureus ugtP deletion strain | S. aureus RN4220 ugtP deletion, OD600 growth, 16 h; some inactives read as strong as hits | growth inhibition, % (concentration not given with the values) | 330,000 compounds, 0.54% hits | AID 1259309;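 active = z-score under -3 and OD600 up to 0.15 on both plates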;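 note: plate controls were untreated wells for no effect and antibiotic for full effect; wells of about 80 µL received 100 nL stock; the first replicate is given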
Mtb hypoxia rep growth = also measured in Mtb hypoxia rep; calls as there; growth inhibition, %; measured here: M. tuberculosis growth (absorbance);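 0% = vehicle and 100% = reference antibiotic; read after six days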
* = called active by the depositor; ? = inconclusive; · = not tested or not shown.

#	Compound	Mtb hypoxia rep	Mtb hypoxia rep growth	BJeLR lethal	PrP UTR inh	Sa RN4220 lethal	Bead autofluor	Sa ugtP lethal
1	Cn1cccc1C(=O)NC(=O)COC(=O)c1cc([N+](=O)[O-])ccc1Cl	6	13	2	-1	6.0	3288	1
2	CCC(C)(C(=O)NC1CCCC1)N(CC1CCCO1)C(=O)c1ccc2c(c1)OCO2 (stereo unspecified)	13	9	6	-14	4.3	5974	5
3	CS(=O)(=O)N(CCc1ccccc1)CC(=O)N1CCN(Cc2ccccc2)CC1	·	·	17	0	-0.1	4429	4
4	Cc1ccc2nc(N3C(=O)C(O)=C(C(=O)c4ccco4)C3c3cccs3)sc2c1 (stereo unspecified)	1	-8	-7	-43	-0.7	8263	11
5	O=C(CSc1nnc(CNC(=O)c2cccc(C(F)(F)F)c2)o1)NC1CCCCC1	9	7	6	-4	-2.5	5838	4
6	Cn1cc(/C=N/n2cnc3scc(-c4ccccc4)c3c2=O)c2ccccc21	·	·	12	-11	·	4155	·
7	CCOC(=O)C1(Cc2cccc(OC)c2)CCCN(Cc2nccn2CC)C1 (stereo unspecified)	-10	9	5	-13	-1.0	4872	-10
8	CCOC(=O)C1=C(C)NC(C)=C(C(=O)OCC)C1c1cn(-c2ccccc2)nc1-c1ccco1	·	·	-12	-8	0.8	2506	2
9	Cc1ccc(C(=O)NN=c2oc3ccccc3cc2C(N)=O)cc1	18	12	·	·	8.7	·	-3
10	CC(=O)Nc1c(O)nc(SCC(=O)Nc2ccc(C(C)=O)cc2)[nH]c1=O	8	1	1	-48	2.7	8693	11
11	O=c1c2ccccc2oc2nc(-c3cccs3)n(CCc3ccccc3)c(=O)c12	4	8	5	·	10	·	-2
12	CN(CC(=O)Nc1ccc(Cl)cc1)CC(=O)Nc1cc(Cl)ccc1C#N	-4	-5	4	16	1.7	8245	-9
13	CC(=O)Nn1c(-c2ccccc2)cc2ccccc21	·	·	0	-9	-3.8	4333	2
14	CC(=O)c1ccccc1-c1csc2ncnc(Sc3nnnn3C)c12	10	10	·	-20	4.0	4018	4
15	O=C(CSc1ccc(-c2ccccn2)nn1)Nc1ccccc1	18	7	-5	-7	0.9	5892	10
16	Cc1cc(C(F)(F)F)n2nc(-c3cnn(C)c3C(F)(F)F)c(Br)c2n1	11	10	7	-18	20	4277	4
17	CN1C(=O)c2ccc(NC(=O)CCS(=O)(=O)c3ccccc3)cc2C1=O	8	5	0	5	16	4702	8
18	Oc1cc2c(cc1CN1CCN(c3ccccc3)CC1)CCC2	1	7	0	-1	3.4	3386	0
19	CCOc1cc(Br)c(CC(=O)NC2CCCCCC2)cc1OCC	8	6	2	-21	0.8	6084	14
20	O=C(NCC1CC1)[C@@H]1C[C@H]1[C@@H](NP(=O)(c1ccccc1)c1ccccc1)c1ccccc1	·	·	3	-4	·	2984	·
21	CC(C(=O)Nc1ccc(O)cc1C(=O)O)N1C(=O)/C(=C\c2cccs2)SC1=S (stereo unspecified)	-7	-2	4	-10	4.2	?	-4
22	O=C(COC(=O)C1CC(=O)N(Cc2ccccc2)C1)Nc1ccc(Cl)cc1F (stereo unspecified)	2	7	1	-3	4.8	6224	12
23	COc1ccccc1/C=N/OC(=O)c1ccc(F)cc1	·	·	-6	-26	·	4973	·
24	Cc1cccc(Nc2nc3c(s2)CCCC3)c1	10	6	-16	-114	1.8	7333	-13
25	COc1ccc(-c2cc(=O)oc3cc(OC(=O)C4CCCCC4)c(Cl)cc23)cc1	9	6	-2	-3	-3.9	2477	18
26	CCc1ccccc1NC(=S)N1CCN(c2cccc(OC)c2)CC1	9	4	-9	-20	0.8	3186	8
27	COc1ccc(CCN2C(=NC(=O)CC(C)C)SC3CS(=O)(=O)CC32)cc1OC (stereo unspecified)	3	7	-2	-26	3.0	3781	0
28	Cc1ccc(C=NNC(=O)c2csc(C)c2)o1	3	9	·	·	0.0	·	-6
29	CCOc1ccc(N2C(=O)/C(=C/c3cccs3)N(CC(=O)OC)C2=S)cc1	7	8	2	-19	3.8	9860	-5
30	Cc1cccc2sc(NC(=O)C3CC3)nc12	9	13	1	-26	4.9	3559	9
31	O=C(CCNS(=O)(=O)c1cccc2nonc12)NC1CCCCC1	-4	3	1	-10	5.4	2119	2
32	C=CCNC(=O)/C=C/c1c(F)cccc1Cl	·	·	4	-42	-1.0	2207	-4
33	CC(=O)c1c(C)[nH]c(C(=O)Nc2cc(S(=O)(=O)N(C)C)ccc2C)c1C	10	8	12	-15	5.8	4594	5
34	N#C/C(=C\c1ccc2c(c1)OCCO2)C(=O)Nc1nccs1	-12	-3	-7	-32	0.1	5858	-4
35	Cc1ccc(CNC(=O)C2CCC(=O)N(Cc3ccccc3F)C2)s1 (stereo unspecified)	0	-6	-4	-8	-5.3	5051	8
36	Cc1c(CCC(=O)O)c(=O)oc2cc(OCc3ccccc3F)ccc12	7	-2	-5	-22	4.9	3016	0
37	CC1CCCCC1NC(=O)COC(=O)c1ccc2ncsc2c1 (stereo unspecified)	0	0	·	-20	2.8	9155	-1
38	CNC(=O)c1cc(OCC(F)(F)F)ccc1OCC(F)(F)F	13	13	3	-25	3.4	4466	7
39	Cc1cccc(C)c1NC(=O)C1(N(Cc2ccco2)C(=O)Cn2nnnc2N)CCCCC1	4	2	0	-3	-2.8	2733	0
40	COc1cccc(/C=N/N2CCN(Cc3ccccc3)CC2)c1O	·	·	-11	-31	·	3804	·
41	C/C(=N\NC(=O)COc1ccc(C(C)(C)C)cc1)c1ccccc1	·	·	-1	-28	·	4543	·
42	CNC(=S)N1CCN(C(c2ccccc2)c2ccccc2)CC1	4	4	5	3	0.4	4511	6
43	CCC(NC(=O)C1CCCC1)c1ccccc1 (stereo unspecified)	-1	-3	-5	-14	0.2	3521	6
44	O=C(NCc1cc2ccccc2[nH]1)c1ccccc1F	18	11	5	-28	2.4	3406	6
45	Cc1cccc(N2CCN(C(=O)c3ccc(NS(=O)(=O)c4c(C)noc4C)cc3)CC2)c1C	·	·	-3	-27	-2.4	4561	-8
46	Cc1cccc(C)c1OCC(=O)N/N=C/c1cc2c(cc1[N+](=O)[O-])OCO2	·	·	2	-21	·	5888	·
47	COC(=O)c1ccc(Nc2nc(-c3ccncc3)nc3ccccc23)cc1	3	5	6	-16	4.3	2777	4
48	COC(=O)C(=NNc1ccccc1C(=O)OC)C(C)=NO	0	-9	·	·	2.7	·	2
49	O=C(Oc1ccc2cc(Br)ccc2c1)c1cccnc1	2	2	-16	-11	4.4	10482	10
50	CCS(=O)(=O)N1CCCC(C(=O)NCCCN(C)Cc2ccccc2)C1 (stereo unspecified)	10	12	-4	-27	1.8	3007	1
51	CCCC1=NN2C(=N)/C(=C\c3ccc(SCc4ccco4)o3)C(=O)N=C2S1	·	·	-6	-24	·	9759	·
52	CCCNC(=O)Nc1ccc(F)c(Cl)c1	11	12	-9	-4	2.0	1931	0
53	CCOc1ccccc1NC(=O)c1cccc(NC(=O)CC(c2ccccc2)c2ccccc2)c1	12	4	1	-46	-6.2	12165	31
54	FC(F)(F)COc1cc(-c2nnc(SCc3ccccc3)n2Cc2ccco2)cc(OCC(F)(F)F)n1	14	19	1	-29	-8.7	6139	-11
55	Cc1ccc(N/C=C(\C#N)c2ccc(OCCCF)cc2)cc1	-4	-2	-5	-15	4.4	3937	0
56	C=CCn1c(SCC(C)=O)nnc1-c1ccc2ncccc2c1	16	-9	-3	-11	4.0	3622	14
57	CN(C)CCCNC(=S)Nc1ccc(-c2ccccc2)cc1	8	11	2	-10	-3.1	3865	2
58	CCOc1ccc(C(=O)Nc2nccs2)cc1[N+](=O)[O-]	-1	7	1	-40	4.9	2430	16
59	Cc1nn(C)c(Oc2cccc(Cl)c2)c1C(=O)Nc1ccc(F)cc1	-3	2	1	-9	-0.9	11695	21
60	CC(/C=C/c1ccc(OCc2ccccc2)cc1)=NO	11	1	·	·	5.3	·	3

Later entries
#	Compound	Mtb hypoxia rep	Mtb hypoxia rep growth	BJeLR lethal	PrP UTR inh	Sa RN4220 lethal	Bead autofluor	Sa ugtP lethal
61	CCC(=O)c1cc(F)c(N2CCN(C(=O)Cc3ccccc3)CC2)cc1C	·	·	-6	-17	-1.2	5065	6
62	O=C(CCCC(=O)OCC(=O)c1ccc(Cl)cc1)NC1CCCCC1	0	7	0	-4	3.4	5556	5
63	COc1ccc(/C=C2/Sc3ccc(C(=O)NCCN4CCCCCC4)cc3NC2=O)cc1	·	·	9	1	-0.1	5953	-6
64	CCN(C#N)c1nc(N(C)C)nc(N(C)C)n1	8	-4	-3	-26	1.8	9703	6
65	CC(=O)NS(=O)(=O)c1ccc(NC(=O)COc2ccc(C(=O)c3ccccc3)cc2)cc1	2	-2	1	-23	1.3	2116	3
66	CN(CCOc1ccccc1)C(=O)c1cc(S(=O)(=O)N2CCCCC2)ccc1Cl	4	6	5	-21	0.1	?	8
67	O=C(CN1CCN(c2cccc(Cl)c2)CC1)NC1CCCc2ccccc21 (stereo unspecified)	3	3	4	-7	-3.0	5514	1
68	COc1ccc(CNC(=O)Cc2c(C(=O)O)[nH]c3ccccc23)c(OC)c1	3	-1	1	-23	2.3	4972	4
69	CC(C)CC1CN=C(Nc2ccccc2)N1CCC1CCCC1 (stereo unspecified)	6	11	·	·	5.2	·	-11
70	Cc1cccn2c(=O)c3cc(C#N)c(=NC(=O)c4cccs4)n(CC(C)C)c3nc12	14	4	-1	-20	-1.4	4607	3
71	COc1cn(-c2ccccc2)nc1C(=O)NCc1ccc(C)cc1	11	6	5	-16	6.1	4106	2
72	O=C(Nc1nnc(SCc2ccc(Cl)cc2)s1)C1CC(=O)N(Cc2ccccc2)C1 (stereo unspecified)	0	-3	0	-2	0.8	2026	-11
73	COc1cccc(NC(=S)N(Cc2ccccn2)Cc2ccccc2Cl)c1	2	12	-2	-21	8.4	4283	12
74	CN(C)CCNC(=O)Cn1c(=O)c2cccn2c2ccc(F)cc21	-7	7	6	-22	4.5	3867	-4
75	CN(CC(=O)Nc1ccc(F)cc1)C(=O)CN1C(=O)c2ccccc2C1=O	-2	0	·	-17	-0.9	3532	-2
76	O=C(NCc1ccco1)/C(=C\c1cccnc1)NC(=O)c1ccccc1F	8	-4	-14	-17	3.9	1728	-4
77	CCCC(=O)Nc1cc(C(=O)N(C)CC(OC)OC)ccc1S(=O)(=O)c1ccc(C)cc1	-1	-1	-3	-22	-1.3	3557	-1
78	Cc1ccc(-c2csc(NN=Cc3ccco3)n2)cc1	4	2	·	·	1.9	·	1
79	COc1cc(CN(C(=O)c2cc3ccccc3oc2=O)C2CCS(=O)(=O)C2)cc(OC)c1OC (stereo unspecified)	12	13	1	-31	3.1	5255	9
80	CN1C(=O)/C(=N\OC(=O)c2ccccc2Cl)c2ccccc21	·	·	-1	-20	·	2129	·
81	CC(C)n1nnnc1SCC(=O)c1ccc2c(c1)OCCO2	5	11	-4	-69	3.7	4388	4
82	CCn1c(=O)c(=O)[nH]c2cc(C(=O)NC3CCCc4ccccc43)ccc21 (stereo unspecified)	-6	0	3	7	-1.5	?	17
83	Cc1nn(CCCC(=O)Nc2ccc(Br)cc2F)c(C)c1[N+](=O)[O-]	1	-9	9	-12	-2.6	3415	2
84	COc1ccc(S(=O)(=O)N2CCCCCC2)cc1C(=O)N1CCCCC1	8	18	-8	-4	1.8	5437	2
85	CON1C(=O)C(=O)N(OC)C(C)(C)C1C (stereo unspecified)	-4	-1	-3	-3	-1.9	8504	1
86	O=C(CN1CCOCC1)Nc1ccccc1C(=O)Nc1ccccc1	12	8	0	-22	1.6	3657	0
87	COc1cccc(NC(=O)COC(=O)c2cc(=O)c3ccccc3o2)c1	-3	-2	·	-1	-7.4	?	-4
88	NNC(=S)NCCc1ccccc1	3	-9	-1	-18	11	3051	-65

Another view of some results above.
Results follow in this order: Mtb hypoxia rep	Mtb hypoxia rep growth	BJeLR lethal	PrP UTR inh	Sa RN4220 lethal	Bead autofluor	Sa ugtP lethal
#82 CCn1c(=O)c(=O)[nH]c2cc(C(=O)NC3CCCc4ccccc43)ccc21 (stereo unspecified)
→ -6	0	3	7	-1.5	?	17
#83 Cc1nn(CCCC(=O)Nc2ccc(Br)cc2F)c(C)c1[N+](=O)[O-]
→ 1	-9	9	-12	-2.6	3415	2
#84 COc1ccc(S(=O)(=O)N2CCCCCC2)cc1C(=O)N1CCCCC1
→ 8	18	-8	-4	1.8	5437	2

Source: PubChem
